VACV Venus inh: inhibitors of vaccinia virus (Venus reporter) | Vaccinia virus Venus reporter expression, fluorescence | Potency, µM (highest dose often 36.5 µM), without a hit: at the top dose activity change, negative = inhibition, most hits filed as inhibitors | actives 0.46% (n = 330,000) | AID 720580; active means well fitted inhibition curve with a large enough effect; inconclusive means small, poorly fitted or top-dose-only effect; inactive means no such curve, though single readings can be large or run the other way; tested in A549 cells; also: nearly all actives have a fitted effect of over 30% in size; inactives centre near -10
Vaccinia mCherry: vaccinia inhibition (mCherry reporter) | Potency, µM (titrated, usually from 36.5 µM), inactives show at the highest dose activity change, negative = inhibition, actives largely listed as inhibitors | actives 0.63% (n = 310,000) | Vaccinia virus mCherry reporter infection, fluorescence; about a quarter of the inactives have no number; active = well fitted inhibition curve with a large enough effect; inconclusive = small, poorly fitted or top-dose-only effect; inactive = no such curve, though single readings can be large or run the other way; tested in A549 cells; also: nearly all actives have a fitted effect of over 35% in size; inactives centre near -10
The depositor's hits bear a star; i = inactive; ? = inconclusive; / = not tested or not shown; [ ] = remark or other dose. % is scaled to controls: 0 for no effect and ±100 for the full control effect; potency is read from the fitted curve at half-maximal effect.

SMILES	VACV Venus inh	Vaccinia mCherry
O=C(CSc1ncn[nH]1)Nc1nc(-c2ccccc2)ns1	-15.0%	-15.5%
Cc1c(N2C(=O)c3ccc4c5c(ccc(c35)C2=O)CC4)c(=O)n(-c2ccccc2)n1C	-16.0%	/
Cc1cc(C)n2nc(C(=O)OCC(=O)NC(=O)c3ccccc3)nc2n1	-4.9%	-13.7%
Cc1cccc(OCCNc2ccc([N+](=O)[O-])cn2)c1	-4.6%	i
O=C(NNC(=O)c1cccc2ccccc12)c1cccc(F)c1	-7.3%	-9.8%
COc1ccc(C)cc1NC(=O)C1CCCN(S(=O)(=O)c2ccc3c(c2)CCCN3C(C)=O)C1 (stereo not given)	-24.0%	-17.6%
Cc1cnc(CNC(=O)C2CCC(=O)N(CCc3ccc(Cl)cc3)C2)cn1 (stereo not given)	-9.7%	i
COc1ccc(Nc2c([N+](=O)[O-])ccc3c2=NC2(CCCCC2)N=3)cc1	-13.8%	-24.4%
O=C(NCc1ccco1)NCC(F)(F)F	-11.3%	/
CCC(=O)c1ccc(OCC(O)CNC(C)c2ccccc2)cc1 (stereo not given)	-12.5%	i
CC(C)OCCCN1CN(S(=O)(=O)c2cccc(Cl)c2)c2nc3ccccc3nc21	-12.6%	/
Cc1nc(NC(=O)c2ccc3c(c2)OCO3)ccc1Br	-0.9%	-3.3%
CCOc1ccccc1C1NC(=O)NC(C)=C1C(=O)OC1CCCCC1 (stereo not given)	-25.8%	-22.2%
Cc1ccc(S(=O)(=O)CCC(=O)Nc2ccc(OC(F)(F)F)cc2)cc1	-3.8%	-9.1%
COc1ccc(C)cc1S(=O)(=O)N(C)CC(=O)N1CCCCC1	-4.5%	i
CCn1nc(C)c2c(-c3ccccc3)cc(=O)n(C(C)C(=O)NCCc3ccc(OC)c(OC)c3)c21 (stereo not given)	1.1%	-2.6%
CCOCCCNC(=O)/C(C#N)=C/c1cc(OC)c(O)c([N+](=O)[O-])c1	-17.6%	-22.0%
Cc1ccc(C(=O)CSc2nc3ccccc3o2)cc1	-12.8%	-20.9%
CC1CCc2nc3ccccc3c(C(=O)OCC(=O)N(C)C3CCS(=O)(=O)C3)c2C1 (stereo not given)	-0.2%	i
O=C(Cc1ccccc1)NCC(=O)OCC(=O)c1cccc([N+](=O)[O-])c1	-4.1%	-12.4%
CCN(Cc1ccccc1)C(=O)C1CCN(c2ncnc3c2nc2n3CCCCC2)CC1	-16.7%	-6.9%
Cc1ccc(C)c(N2C(=O)N(Cc3c(F)cccc3Cl)c3ccccc3S2(=O)=O)c1	-5.4%	-7.4%
Cc1nc2c(C(=O)NCCc3ccccc3)cnn2c(C)c1Cc1c(F)cccc1Cl	-11.3%	-26.1%
NC(=O)COC(=O)CN1C(=O)C2CCCCC2C1=O (stereo not given)	2.0%	-3.0%
COc1ccc(/C(N)=N/OC(=O)CSc2ccccc2)cc1OC	-12.9%	-12.5%
Cc1cc(C)cc(OCC(=O)NC(Cc2c[nH]c3ccccc23)C(=O)O)c1 (stereo not given)	-20.8%	-24.0%
N#Cc1cc(O)c(-n2nnc3ccccc32)cc1C#N	-11.3%	-26.8%
CCOC(=O)N1CCN(C(=O)c2ccc3c(=O)n(CCc4ccccc4)c(=S)[nH]c3c2)CC1	-12.0%	-13.1%
CCN1C(=O)c2cccc3c(NC(=O)c4cccc(N5C(=O)CCC5=O)c4)ccc1c23	-3.3%	-7.2%
CCC(=O)N1CCc2cc(Br)cc(S(=O)(=O)NCCN3CCCCC3C)c21 (stereo not given)	-20.4%	-21.7%
COc1cccc(COC(=O)c2ccc3c(=O)n4c(nc3c2)CCC4)c1OC	-5.6%	-11.0%
O=C(COc1ccc(S(=O)(=O)NCc2ccccc2)cc1Cl)N1CCOCC1	-11.2%	-13.0%
Cc1nc(SCC(=O)N2CC(=O)Nc3ccccc32)nc(C)c1C	-8.2%	i
Cc1nc2c(C#N)c(C)[nH]n2c(=O)c1Cc1ccccc1	-9.3%	-1.9%
CC(=O)OC(C)CS(=O)(=O)c1ccccc1 (stereo not given)	7.94µM*	7.94µM*
O=c1c(Cc2ccccc2O)c(O)nc2n1CCCS2	-7.4%	i
O=C(N/N=C/c1ccsc1)c1ccc2ccccc2n1	-14.1%	-3.7%
Cc1cc(C(=O)OC(C)C(=O)Nc2cccc(S(=O)(=O)N3CCOCC3)c2)c(C)o1 (stereo not given)	-11.3%	i
CCCc1cc(=O)[nH]c(SCC(=O)c2[nH]c(C)c(C(=O)OCC)c2C)n1	3.9%	-9.4%
COc1ccc(NC(=O)COC(=O)c2ccc(N3CCCC3=O)cc2)cc1OC	-11.2%	-0.8%
CCC1=C(OC(=O)N(CC)CC)N2C(=O)OC(=NCCOC)[C@]2(Cc2ccccc2)[C@H]2C1=CC[C@H]1C(=O)N(CC)C(=O)[C@H]12	1.7%	i
Cc1cc(OCCCC(=O)N2CCCCC2)cc(C)c1Cl	0.0%	18.7%
Cc1ccc(C(=O)NCCNS(=O)(=O)c2ccccc2[N+](=O)[O-])cc1	-3.3%	i
O=C(Nc1cccc(-c2cn3ccccc3n2)c1)c1cccc(Cl)c1	14.1µM*	?
CC(NC(=O)c1ccco1)C(=O)OC(C)C(=O)NCc1ccccc1 (stereo not given)	2.7%	-4.1%
O=C(Cc1ccccc1)CC1(O)C(=O)Nc2ccccc21 (stereo not given)	-0.6%	i
Cc1c(/C=N\NC(=O)c2cccc(F)c2)cnn1C	-7.0%	-3.7%
CCn1c(O)c(C(=O)CC2NCCc3ccccc32)c(=O)n(CC)c1=S (stereo not given)	-4.4%	-11.4%

Shown as labelled records: 4 of the compounds above.
Cc1ccc(C(=O)NCCNS(=O)(=O)c2ccccc2[N+](=O)[O-])cc1
  VACV Venus inh: -3.3%
  Vaccinia mCherry: i

O=C(Nc1cccc(-c2cn3ccccc3n2)c1)c1cccc(Cl)c1
  VACV Venus inh: 14.1µM*
  Vaccinia mCherry: ?

CC(NC(=O)c1ccco1)C(=O)OC(C)C(=O)NCc1ccccc1 (stereo not given)
  VACV Venus inh: 2.7%
  Vaccinia mCherry: -4.1%

O=C(Cc1ccccc1)CC1(O)C(=O)Nc2ccccc21 (stereo not given)
  VACV Venus inh: -0.6%
  Vaccinia mCherry: i

New compounds follow:
SMILES	VACV Venus inh	Vaccinia mCherry
COc1ccc(-n2c(N)c(-c3nc4ccccc4n3C)sc2=S)cc1	-13.6%	/
COc1ccc(C(=O)OCC(=O)NC2CC2)cc1S(=O)(=O)N(C)Cc1ccccc1	-11.5%	i
COCCNC(=O)/C(C#N)=C/C=C/c1ccccc1	-10.0%	-16.7%
Cc1[nH]c(=O)[nH]c1C(=O)CCCCC(=O)OCC(=O)Nc1ccccn1	-10.3%	-11.9%
O=C(NC(=S)Nc1ccccc1O)c1ccc(Cl)cc1Cl	?	?
Cc1ccc(C23CC4CC(CC(C(=O)NC(C)C)(C4)C2)C3)cc1	-14.2%	-1.3%
CCOc1ccccc1/C=N/Nc1nc2ccccc2o1	-2.3%	-14.7%
COC(=O)C1CCN(S(=O)(=O)c2c(C)n(C)c(=O)n(C)c2=O)CC1	7.0%	i
CCCc1c(C)nc2c(OC)cccc2c1SCC(=O)O	-6.0%	-7.3%
NC(=O)CC(NC(=O)Cc1cccc2ccccc12)c1ccc(NCCc2ccc(F)cc2)c([N+](=O)[O-])c1 (stereo not given)	?	-29.0%
O=C(NN=Cc1ccc(N(CCCl)CCCl)cc1Cl)c1cccnc1	?	?
Cc1nc(-c2ccc(S(=O)(=O)Nc3ccc(OC(F)(F)F)cc3)cc2)co1	-0.6%	-1.7%
CCc1ccc(NC(=O)CN(Cc2ccccc2)S(=O)(=O)c2ccc3nc(C)sc3c2)cc1	-11.0%	-9.7%
CC(C)c1c(C(=O)N(C)Cc2cccc3ncccc23)cnn1-c1nccc(-c2ccco2)n1	-28.8%	?
Cc1nc2nc(N)nc(OCc3ccccc3)c2nc1C	-5.1%[7.34 µM]	i[7.34 µM]
CCOC(=O)C1CCN(C(=O)C(=O)c2cn(CC(=O)N3CCCCCC3)c3ccccc23)CC1	-11.2%	i
O=C(NCCc1cnccn1)C1CCC(=O)N(Cc2ccc(Cl)cc2)C1 (stereo not given)	1.0%	-11.3%
CC(C)NC(=O)C1(C)CCN1Cc1ccc(Cl)cc1 (stereo not given)	5.8%	6.7%
CC(=O)Oc1ccccc1Cn1c(C)c(C(=O)N(C)Cc2ccc(F)cc2)sc1=O	-7.4%	i
CCCOC(=O)Nc1ccc(S(=O)(=O)Nc2ncccn2)cc1	1.7%	i
CCOC(=O)CCCN(c1[nH]c(C)c(C)c1C#N)S(=O)(=O)c1ccc(C)cc1	-3.0%	i
COc1ccc(NC(=O)c2cc3c(s2)CCC(C)C3)cc1S(=O)(=O)N1CCOCC1 (stereo not given)	?	?
CC(=O)NC(=S)Nc1ccc(NC(=O)c2cccs2)cc1	-12.7%	-6.4%
COc1ccc(-c2nc(SCC(=O)N3CCOCC3)n[nH]2)cc1	12.7%	/
COc1ccc(S(=O)(=O)N2CCCC2CNC(=O)C(=O)NCc2ccccc2)cc1 (stereo not given)	-17.3%	?
CCSc1nnc(NC(=O)c2cccnc2)s1	-11.6%	-24.2%
O=c1c2nncn2c2cccnc2n1CCNc1ncc(C(F)(F)F)cc1Cl	-4.4%	-11.6%
COc1cccc(CN2CCNCC2)c1OC	-2.7%	-21.3%
COc1ccc(NC(=O)CN2CC(C)OC(C)C2)cc1Cl (stereo not given)	-10.4%	i
Cc1ccc(N2C(=O)NC(=O)/C(=C\c3cc(C)n(-c4sc5c(c4C#N)CCCC5)c3C)C2=O)cc1	-15.2%	-14.6%
O=S(=O)(Nc1cccc(-n2cnnn2)c1)c1cc(Br)ccc1Br	-4.8%[7.34 µM]	-1.8%[7.34 µM]
COc1ccc(NC(=O)CCCN2C(=O)C3C4C=CC(C4)C3C2=O)c(OC)c1 (stereo not given)	2.3%	-20.0%
COc1cccc(N2C(=NC(=O)C3CCCCC3)SC3CS(=O)(=O)CC32)c1 (stereo not given)	-1.6%	i
COc1ccc(CN2CCN(c3ccc(F)cc3)CC2)c(OC)c1OC	-14.3%	-13.0%
COc1ccc(Cn2c(=O)c3oc4ccccc4c3n(Cc3cccc(F)c3)c2=O)cc1	-12.2%	-8.2%
COc1c(OP2(=S)OCC(C)(C)CO2)cnn(C2CCCCC2)c1=O	1.8%	3.0%
Cc1cc(=O)n2[nH]c(N3C(=O)CCC3=O)nc2n1	-4.0%	-10.4%
CCOC(=O)C1CCCN(Cc2c(C(=O)N3CCOCC3)nc3ccccn23)C1 (stereo not given)	-11.3%	3.6%
O=C(Oc1ccc2c(-c3ccccc3)cc(=O)oc2c1)c1cccs1	-17.9%	i
CC(=O)N(c1ccc(C)cc1)C1C=CS(=O)(=O)C1 (stereo not given)	-9.1%	19.5%
CN(C(=O)COC(=O)c1cc(S(=O)(=O)N2CCOCC2)ccc1Cl)C1CCS(=O)(=O)C1 (stereo not given)	-8.7%	i
O=C(Nc1ccc(OCC(F)(F)C(F)F)c(C(F)(F)F)c1)c1ccccc1O	10µM*	?
Cc1ccc(S(=O)(=O)N2CCOCC2)cc1C(=O)Nc1ccccc1C(=O)O	-13.9%	-7.2%
CCc1nnc(NC(=O)CSc2nnc(COc3ccc(C)cc3)n2-c2ccccc2)s1	-20.7%	i
O=c1[nH]c(C2CCCN(S(=O)(=O)c3cccc(F)c3)C2)nc2c1nnn2Cc1ccccc1 (stereo not given)	-18.4%	-27.9%
c1ccc(N/N=C(\Cc2ncc[nH]2)c2ccccc2)cc1	-6.2%	i
Cc1cc(Cl)ccc1NC(=S)NCc1ccc(S(N)(=O)=O)cc1	-6.1%	-9.7%
COc1ccc(S(=O)(=O)N2CCCCC2c2cc(C(=O)Nc3ccccc3)no2)cc1 (stereo not given)	-10.8%	-13.2%
O=[N+]([O-])c1ccc(S(=O)(=O)NCCCc2ccccc2)cc1	-8.5%	?
O=C(N[C@@H](c1ccccc1)[C@H](O)c1ccccc1)[C@@H]1CCCN1C(=O)OCc1ccccc1	-11.2%	i
O=CNc1cc(-c2ccoc2)cn2c(-c3ccc(F)cc3)cnc12	-7.8%	3.8%
CSc1ccc(/C=N/NC(=O)c2cccc(Cl)c2)cc1	3.2%	-13.9%
CCOc1ccc(-c2cc(C(=O)N/N=C(\C)c3cccnc3)c3ccccc3n2)cc1	-15.3%	?
CCC(C)Sc1nc2c(cnn2-c2ccc(F)cc2)c(=O)[nH]1 (stereo not given)	-19.4%	-25.2%
CC(C)C(=O)NC(=S)N1CCc2ccccc21	-17.9%	i
CCOC(=O)c1ccc(Nc2cc3ccccc3c(=O)[nH]2)cc1	-20.2%	-9.7%
Cc1nnc(NC(=O)C2CCCN(S(=O)(=O)c3ccccc3C(F)(F)F)C2)s1 (stereo not given)	-13.8%	-16.5%
CCN(Cc1ccccc1)C(=O)C1CCN(C/C(C)=C/c2ccccc2)CC1	-12.5%	-14.9%
Cc1cc(C)n(-c2nc3ccccc3c(=O)n2OCC(=O)N(C)C)n1	-5.2%	/

High-throughput results: PubChem BioAssay, National Center for Advancing Translational Sciences (NCATS)
